Compound activity as filed in PubChem.
Polio RdRp inh: poliovirus RNA polymerase inhibition; P03300; poliovirus polymerase elongation, fluorescence polarization; hits give low values; % elongation, % (compound at 16.7 µg/mL); 150,000 tested, 0.66% active; AID 588519; in the data active means % elongation below about 90%; further: some results filed as inactive read as strong as hits
Target sequence (P03300 1749-2209 limits assumed): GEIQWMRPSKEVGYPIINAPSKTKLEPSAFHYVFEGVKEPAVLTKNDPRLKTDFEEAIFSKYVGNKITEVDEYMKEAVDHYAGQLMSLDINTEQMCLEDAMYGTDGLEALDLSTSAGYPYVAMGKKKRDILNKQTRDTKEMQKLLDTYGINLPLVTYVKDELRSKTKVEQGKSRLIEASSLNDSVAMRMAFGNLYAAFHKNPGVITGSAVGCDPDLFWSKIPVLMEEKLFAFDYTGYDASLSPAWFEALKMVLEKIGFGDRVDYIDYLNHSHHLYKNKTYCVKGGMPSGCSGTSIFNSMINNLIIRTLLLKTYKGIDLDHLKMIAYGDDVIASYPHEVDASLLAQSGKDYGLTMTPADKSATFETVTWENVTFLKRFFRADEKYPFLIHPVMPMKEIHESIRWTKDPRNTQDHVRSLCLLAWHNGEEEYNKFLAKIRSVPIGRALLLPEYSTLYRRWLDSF
Polio RdRp inh intensity: also measured in Polio RdRp inh; calls as there; % elongation; measured here: total intensity read-out; formula for this scale not given here;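 total fluorescence in place of polarization; lower means less elongation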
* marks the source's active call; other numbers are inactive results. These rows are one share of the data; rates above refer to the full screens.

#	Molecule	Polio RdRp inh	Polio RdRp inh intensity
1	Cc1nn2c(=O)cc(COC(=O)c3ccc(NC(=O)COc4ccc(C)c(C)c4)cc3)nc2s1	107	104
2	COc1ccc(CNC(=O)c2ccc(CS(=O)(=O)c3ccccc3OC)o2)cc1	109	112
3	Cc1c(NC(=O)Nc2ccc(Cl)c(C(F)(F)F)c2)c(=O)n(-c2ccccc2)n1C	104	103
4	Cc1cccc(CCNC(=O)C2CCN(c3ncnc4c3nc3n4CCCCC3)CC2)c1	108	111
5	CCOC(=O)Cn1c(=O)n(CC2CCCO2)c2nc(-c3ccccc3OC)nc(C(N)=O)c21 (stereo unspecified)	102	108
6	CCN(C(=O)c1cc2c(=O)oc3ccc(C)cc3c2s1)c1cc(OC)ccc1OC	102	103
7	COc1ccccc1CNc1nc(-c2ccco2)nn1S(=O)(=O)c1ccc2ccccc2c1	104	97
8	CCN(C(=O)Cn1c(=O)oc2cc(S(=O)(=O)N3CCCC3)ccc21)c1cccc(C)c1	105	106
9	Cc1ccc(-c2cc(C(=O)N(Cc3ccccc3)Cc3ccco3)no2)cc1F	113	111
10	CCC(C)NC(=O)C1CCN(C(=O)c2ccc(-n3ccc4ccccc43)s2)CC1 (stereo unspecified)	100	103
11	CCOC(=O)N1CCN(S(=O)(=O)N2CCCC(C(=O)NCc3cccc(OC)c3)C2)CC1 (stereo unspecified)	113	108
12	COc1cccc(CNC(=O)CCCn2ncn3c(cc4occc43)c2=O)c1OC	106	103
13	CCC(=O)N1CCCc2cc(S(=O)(=O)N3CCC(C(=O)Nc4ccc(F)c(F)c4)CC3)ccc21	109	107
14	CCOC(=O)c1ccc(NS(=O)(=O)c2cn(C)c(C)n2)cc1	109	111
15	COc1cc(NC(=O)c2ncn(-c3ccccc3)n2)cc(OC)c1	109	111
16	Cc1ccccc1C1C=C(c2ccc(Cl)cc2)Nc2nnnn21 (stereo unspecified)	100	106
17	CCCCN(C(=O)Nc1ccc(OCC)cc1)C1CCN(C(C)=O)CC1	102	94
18	Cc1ccc2oc3c(c(=O)c2c1)C(c1ccccc1F)N(CCCN(C)C)C3=O (stereo unspecified)	105	101
19	O=C(Cn1ncc2c(=O)oc3ccccc3c21)N1CCN(c2ccc(Cl)cc2)CC1	107	107
20	Cn1c(=O)c2c(-c3ccccc3)n3c(c2n(C)c1=O)C(c1cc(Cl)ccc1O)Nc1ccccc1-3 (stereo unspecified)	110	111
21	COc1ccc(C(=O)Nc2ccc(-c3nc4cc(C)ccc4o3)c(O)c2)cc1	108	109
22	COc1ccc(OC)c(C2CC(=O)c3c([nH]c(C(=O)OCC4CCCCC4)c3C)C2)c1 (stereo unspecified)	100	105
23	COc1ccccc1C(=O)Nc1ccc2nc(SCC(=O)N3CCCc4ccccc43)sc2c1	110	111
24	Cc1c(C(=O)Nc2cccc(-c3nc4ccccc4s3)c2)oc2ccccc12	97	93
25	CCN(C(=O)c1cc2c(=O)n3cccc(C)c3nc2s1)c1ccc(C)c(C)c1	102	103
26	Cc1cccc(C(=O)Nc2sc3c(c2C(=O)Nc2ccccc2)CCC3)c1	105	111
27	Cc1ccc(NC(=O)Cn2nc(C(F)(F)F)c3c2CCC3)cc1C	107	111
28	O=C(CSc1nc2ccccc2c(=O)n1CCC(=O)NC1CCCCC1)Nc1ccccc1Cl	102	111
29	O=S(=O)(c1ccc(Cl)cc1)c1nnn2c1nc(NCc1cccs1)c1sccc12	107	102
30	COc1cc2c(-c3cccc(Cl)c3)nc3c(c(C)nn3-c3ccccc3)c2cc1OC	103	107
31	CCN(C(=O)c1cnc(N2CCOCC2)c2ccccc12)c1cc(C)ccc1C	111	114
32	COc1ccc(Cl)cc1NC(=O)C1CCCN(c2ncnc3onc(C)c23)C1 (stereo unspecified)	124	127
33	COc1ccc(NS(=O)(=O)c2ccc3[nH]c4c(c3c2)CCCCC4)cc1	99	93
34	CCc1ccc(-n2c(C)nc3cc(C(=O)NCCc4ccccc4)ccc32)cc1	114	110
35	Cc1ccc(Cc2nc3ccccc3nc2SCC(=O)N2CCCCC2)cc1	100	103
36	COc1ccc(OC)c(NC(=O)N2CCN(S(=O)(=O)c3ccc4c(ccn4C)c3)CC2)c1	102	106
37	Cc1cc(C)cc(NC(=O)Cn2c(=O)n(C(C)C)c(=O)c3oc4ccccc4c32)c1	106	108
38	O=C(Cn1cc(S(=O)(=O)c2ccc(F)cc2)c(=O)c2cc3c(cc21)OCO3)Nc1ccccc1	103	106
39	CCCOc1ccc(CNC(=O)CCCN2C(=O)CSc3c2c(C)nn3-c2ccccc2)cc1	105	107
40	CCOc1ccc(NC(=O)Cn2c(=O)oc3cc(S(=O)(=O)NC4CCCC4)ccc32)cc1	104	113
41	Cc1ccccc1NC(=O)C1CCN(C(=O)c2ccc(F)cc2)CC1	107	110
42	CCOC(=O)c1cc(S(=O)(=O)Nc2c(C)cc(C)cc2C)[nH]n1	106	109
43	Cc1ccccc1Nc1sc(C(=O)c2ccccc2)c(N)c1C(=O)NCc1ccc(Cl)cc1	108	111
44	CCC(Cn1nnc2ccccc2c1=O)NC(=O)Nc1cccc(Cl)c1 (stereo unspecified)	102	107
45	CCOC(=O)c1ccc(NC(=O)Cn2nc3c4ccccc4n(Cc4cccc(F)c4)cc-3c2=O)cc1	115	114
46	Cc1cc(C)cc(NC(=O)NCc2noc3ccccc23)c1	111	114
47	CCN(CC)C(=O)c1sc2c(c1C)c(=O)n(-c1ccc(Cl)c(Cl)c1)c(=O)n2CC(=O)Nc1cccc(OC)c1	102	103
48	Cc1ccc(NC(=O)c2c(C)oc3ccc(O)c(CN4CCCC4)c23)c(C)c1	104	105
49	CCc1ccc(S(=O)(=O)c2c(C(=O)c3ccccc3)cnc3ccc(CC)cc23)cc1	108	109
50	N#Cc1ccccc1NC(=O)C(=O)NCC(c1cccnc1)N1CCc2ccccc21 (stereo unspecified)	115	113

Arranged by molecular weight (largest number first): part of the list above
#	Molecule	Polio RdRp inh	Polio RdRp inh intensity
9	Cc1ccc(-c2cc(C(=O)N(Cc3ccccc3)Cc3ccco3)no2)cc1F	113	111
33	COc1ccc(NS(=O)(=O)c2ccc3[nH]c4c(c3c2)CCCCC4)cc1	99	93
41	Cc1ccccc1NC(=O)C1CCN(C(=O)c2ccc(F)cc2)CC1	107	110

Next part.
#	Molecule	Polio RdRp inh	Polio RdRp inh intensity
51	Cc1ccc(CNC(=O)C(CC(C)C)NS(=O)(=O)c2ccc3c(c2)oc(=O)n3C)cc1 (stereo unspecified)	102	107
52	O=C(CS(=O)(=O)c1cccc2nsnc12)NCc1ccccc1	111	112
53	COc1cc(OC)c(NC(=O)c2nn(C)c3c2COc2ccccc2-3)cc1Cl	122	117
54	COc1ccc(NC(=O)c2cccn2-c2nnc(N3CCCCC3)s2)c(OC)c1	107	106
55	Cc1cc(C)c(S(=O)(=O)Nc2ccc(-c3ccc(N4CCCCC4)nn3)cc2)c(C)c1	111	112
56	Cc1ccc(N2C(=O)CSC23C(=O)N(CC(=O)NCc2ccccc2)c2ccccc23)cc1 (stereo unspecified)	102	97
57	Cc1cc(OCC(=O)N2CCN(CCc3ccccn3)CC2)cc(C)c1Cl	112	101
58	CC(C)(C)OC(=O)N1CCC(c2c(C(=O)N3CCOCC3)cnn2-c2ccccc2Cl)CC1	106	100
59	Cc1cccc(-n2ccnc2SCC(=O)Nc2cc(C(F)(F)F)ccc2Cl)c1	101	110
60	Cc1ccc(Cl)cc1N1CCN(C(=O)c2cc(S(=O)(=O)N3CCCC3)cn2C)CC1	114	109
61	CCC(Oc1ccc(F)cc1)C(=O)Nc1nc(-c2ccc(F)cc2)ns1 (stereo unspecified)	104	102
62	COc1cc(OC)c(Nc2nc3ccc(C)cc3n3nnnc23)cc1Cl	121	122
63	Fc1ccc(NCc2ccccc2-c2nnc(-c3ccccc3Cl)o2)cc1	110	113
64	CCOc1ccccc1N(CC)C(=O)c1ccc2c(=O)n3c(nc2c1)CCCCC3	109	101
65	CC1CCN(CCCNC(=O)c2cc(Sc3ccc(F)cc3)nc3ccccc23)CC1	109	108
66	CCCCN(CCCNC(=O)c1cc(Nc2cccc(SC)c2)nc2ccccc12)Cc1ccccc1	106	104
67	Cc1c(CCNC(=O)c2ccc(C(F)(F)F)cc2)sc2nc(-c3ccc(F)cc3)nn12	103	110
68	CCOC(=O)c1nc(Nc2ccc(OC)cc2)c2ccccc2n1	101	97
69	CCOC(=O)c1ccc(NC(=O)CN(c2ccc(C)cc2)S(=O)(=O)c2c(C)noc2C)cc1	115	108
70	Cc1ccc(O)c(NC(=O)c2cc(-c3ccc(F)cc3)no2)c1	105	99
71	Cc1cccc(-c2nc(CN3CCCC(C(=O)N4CCN(c5cc(Cl)ccc5C)CC4)C3)c(C)o2)c1 (stereo unspecified)	107	107
72	O=S(=O)(c1ccc(Cl)cc1)c1nc(-c2ccccc2Br)oc1N1CCOCC1	104	108
73	COc1ccc(-n2c(=O)c3c(c4cc(OC)ccc4n3C)n(Cc3ccc(F)cc3Cl)c2=O)cc1	108	113
74	CCOc1ccc(NC(=O)Cn2cnc3nc4c(cc3c2=O)CCCC4)cc1	105	110
75	COCCCNC(=O)CCCn1c(=O)c2cccn2c2cccnc21	106	111
76	O=C(CCC1CCCC1)N1CCc2c([nH]c3ccccc23)C1c1ccc(Cl)cc1 (stereo unspecified)	102	104
77	Cc1cccc(N2CC(c3nc4ccccc4n3CCC3CCCCC3)CC2=O)c1 (stereo unspecified)	110	109
78	Cc1c(Cl)cccc1NC(=O)CNS(=O)(=O)c1cccs1	120	118
79	Cc1ccc(-n2cnc3cc(C(=O)NCc4ccccc4Cl)ccc32)c(C)c1	100	107
80	O=C(C1CCCN(S(=O)(=O)c2cccc3nonc23)C1)N1CCN(c2cccc(C(F)(F)F)c2)CC1 (stereo unspecified)	107	118
81	COc1ccc(Cn2c(NCC(C)C)nc3c2c(=O)n(C)c(=O)n3C)cc1	113	114
82	COCCCNC(=O)C1CCCN(c2ncnc3onc(C)c23)C1 (stereo unspecified)	107	114
83	Cc1ccc(-n2c(=O)cc(N3CCN(c4ccccc4Cl)CC3)[nH]c2=O)cc1	110	116
84	O=C(NCC(c1cccs1)S(=O)(=O)c1cccs1)c1ccccc1F (stereo unspecified)	109	117
85	COc1ccccc1NC(=O)Cn1c(=O)n(Cc2ccco2)c(=O)c2cccnc21	103	107
86	O=C(Cc1ccccc1)Nc1c(C(=O)c2ccccc2)oc2ccccc12	104	106
87	CCOc1ccc(-n2c(SCC(=O)NCc3ccccc3)nc3n[nH]c(C)c3c2=N)cc1	99	102
88	CC(=O)c1cccc(NC(=O)Cn2ccn3nc(-c4ccccc4)cc3c2=O)c1	110	114
89	CCc1ccc(Nc2nnc(-n3nc(C)cc3C)c3ccccc23)cc1	108	107
90	CCCC(CCC)C(=O)Nc1nnc2n1CCS2	98	106
91	CCc1cccc(C)c1NC(=O)CSc1nc2ccccc2nc1N1CCOCC1	106	111
92	CN(Cc1ccc(F)cc1)S(=O)(=O)c1nnc(NC(=O)c2ccccc2Br)s1	111	110
93	Cc1ccc(-c2nc3c(c(SCC(=O)N4CCCCC4)n2)Cc2cc(C)ccc2O3)cc1	103	108
94	CCC(C)NC(=O)Cn1c(=O)c2cccn2c2ccc(F)cc21 (stereo unspecified)	105	105
95	CNC(=O)CCCN1C(=O)c2cccnc2Sc2ccccc21	104	106
96	C=Cc1ccc(Cn2c(C(=O)O)c(CNC3CCCCC3)c3ccc(OC)cc32)cc1	112	108
97	Cc1cccc(-c2noc(CCCC(=O)NCc3ccco3)n2)c1	109	112
98	COc1ccc(N2CCN(C(=O)C3CCN(S(=O)(=O)c4cn(C)cn4)CC3)CC2)cc1	104	107
99	O=C(Cn1nc(C(F)(F)F)c2c1CCC2)Nc1ccc(Cl)cc1	101	105
100	CCOC(=O)c1c(C)[nH]c(C)c1S(=O)(=O)NCC(=O)Nc1cccc(C(F)(F)F)c1	103	107

(further entries)
#	Molecule	Polio RdRp inh	Polio RdRp inh intensity
101	O=C(c1ccc2c(c1)N(Cc1ccc(F)cc1)C(=O)c1ccccc1S2(=O)=O)N1CCN(Cc2ccccc2)CC1	106	107
102	O=C(COc1ccc(Cl)cc1)OCc1cc(=O)n2nc(C3CCCCC3)sc2n1	111	113
103	COc1cccc(-n2c(SCC(=O)Nc3c(C)cc(C)cc3C)nc3c([nH]c4ccccc43)c2=O)c1	101	110
104	Cc1oc(-c2cccc(Cl)c2)nc1CS(=O)(=O)CC(=O)NC(C)CCc1ccccc1 (stereo unspecified)	102	106
105	COc1cc(OC)c(NC(=O)c2c(C)oc3ncnc(N4CCCCC4)c23)cc1Cl	108	114
106	COc1ccccc1Cn1c(CNS(=O)(=O)c2cccc([N+](=O)[O-])c2)nc2cccnc21	107	111
107	O=c1cc(-c2ccccc2)n2c(SCc3ccccc3)nnc2[nH]1	101	107
108	CCN(CC)c1cc(C)c2cc(NC(=O)c3ccc(OC)c(OC)c3)ccc2n1	104	107
109	Cc1ccc(N(CC(=O)NCc2ccc(F)cc2)S(=O)(=O)c2c(C)nn(C)c2C)cc1	103	106
110	O=C(CSc1ncc(-c2ccccc2)[nH]1)Nc1cccc(Br)c1	101	102
111	Cc1ccc(C)c(NC(=O)N2CCN(c3nnc(C)c4c(C)n(-c5ccccc5)nc34)CC2)c1	109	113
112	CCOc1ccc(CCNC(=O)c2ccc3c(c2)N(Cc2ccc(C)cc2)CCS3)cc1	101	104

In the list so far, 6 contain two or more sulfur atoms.
#	Molecule	Polio RdRp inh	Polio RdRp inh intensity
23	COc1ccccc1C(=O)Nc1ccc2nc(SCC(=O)N3CCCc4ccccc43)sc2c1	110	111
29	O=S(=O)(c1ccc(Cl)cc1)c1nnn2c1nc(NCc1cccs1)c1sccc12	107	102
52	O=C(CS(=O)(=O)c1cccc2nsnc12)NCc1ccccc1	111	112
78	Cc1c(Cl)cccc1NC(=O)CNS(=O)(=O)c1cccs1	120	118
84	O=C(NCC(c1cccs1)S(=O)(=O)c1cccs1)c1ccccc1F (stereo unspecified)	109	117
92	CN(Cc1ccc(F)cc1)S(=O)(=O)c1nnc(NC(=O)c2ccccc2Br)s1	111	110
